High-throughput results (PubChem)
Choline anaer gr = growth inhibitors of anaerobic choline-fed gram-negatives, minimal medium, absorbance; 55,000 compounds, 0.2% hits; Gram-negative bacterium anaerobic choline minimal medium; hits give low values; many inactives read as strong as hits in the columns shown; calls only; AID 1963822, 2024;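 active = growth z-score on choline under -2 at 7 or 20 h with little or no fall on glycerol, limits in tiers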;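 note: stock transfer was 300 nL into about 50 µL; the organism is E. coli; final concentration not given here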
Choline anaer gr early = further read-out of Choline anaer gr, marked with its call; z-score; measured here: choline growth z-score, timepoint 1;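 score of optical density at 7 h as mean of two plates; lower means less growth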
* marks the source's active call; other numbers are inactive results; i = inactive; + = active, no number; & = joins results of further samples. A portion of the library; rates above refer to the full screens.

structure	Choline anaer gr	Choline anaer gr early
CCCn1c(=O)c2ccc(C(=O)NC(C)C)cc2n2c(=O)n(CC(=O)NCc3ccccc3Cl)nc12	i	0.02
CC(Sc1nc2c(c(=O)[nH]1)CCCC2)C(=O)Nc1ccc(F)cc1 (stereo unspecified)	i	1.6
COc1ccc(OC)c(NC(=O)N2CCN(c3ccc(=O)n(-c4ccc(F)cc4)n3)CC2)c1	i	0.07
O=C(NC1CCCC1)C1CCc2sc(C(=O)N3CCCC3)cc2C1 (stereo unspecified)	i	0.47
CC(=O)N1CCN([C@H]2CS(=O)(=O)C[C@@H]2S(=O)(=O)c2cccs2)CC1	i	-0.76
CCCc1nnc(C(=O)Nc2cccc(C(=O)NCCc3c[nH]c4ccc(Cl)cc34)c2)s1	i	1.3
Cc1cc(N(C)C)nc(N2CCN(C(=O)c3ccc(C(C)(C)C)cc3)CC2)n1	i	-0.06
COc1ccc(-c2nc3c(s2)CN(C(=O)c2ccc(C)cc2)CC3)cc1	i	-0.43
COCCCNC1=NCCNC12CCN(S(=O)(=O)c1ccc(C)c(C)c1)CC2	i	0.37
CN1C(=O)Cc2cc(NC(=O)C3CCCCC3)ccc21	i	-1.1
CCOc1ccc2oc(C)c(C(=O)Nc3ccccc3Cl)c2c1	i	2.1
O=C(C1CCC1)N1CCC2(CC1)Nc1cc(F)ccc1-n1cccc12	i	-0.55
CCN(CC)CCNc1cc(C)nc2c(-c3ccccc3Cl)c(C(F)(F)F)nn12	i	-0.5
O=C(c1cc2n(n1)CCCN(Cc1ccc(F)cc1)C2=O)N1CCC(N2CCCCC2)CC1	i	0.48
Cc1ccc(CN=C2Nc3ccccc3NC23CCCCC3C)cc1 (stereo unspecified)	i	-0.45
CCN(CC)C(=O)N1C[C@@H]2C[C@H](NS(=O)(=O)c3cccs3)[C@H]1C2	i	0.46
Cc1ccc(C)c(OCc2nc(C)c(C(=O)Nc3nnc(C(C)C)s3)s2)c1	i	-1.6
COc1ccccc1N1CCN(C(=O)CCc2nnc3n(Cc4ccccc4)c(=O)c4ccccc4n23)CC1	i	-0.47
COc1ccc(-c2ccc(N3CCN(C)CC3)nn2)cc1S(=O)(=O)N1CCCC1	i	-1.9
CC1(C)CCC(C)(C)c2cc(C3(c4ccc(C(=O)O)cc4)OCCO3)ccc21	i	0.88
C[N+](C)(CCOc1ccccc1)Cc1ccccc1	i	0.06
CCCNC(=O)C1CC(=O)N(c2ccc3c(c2)CCN3C(=O)C2CC2)C1 (stereo unspecified)	i	-0.64
Clc1ccc(-c2nnc(C(c3ccccc3)N3CCN(Cc4ccccc4)CC3)o2)cc1 (stereo unspecified)	i	-0.16
CCc1c(C)nc2ncnn2c1NCc1cccc(OC)c1	i	0.72
O=S(=O)(c1cccs1)N1CCC(Oc2cccc(C(F)(F)F)c2)CC1	i	0.73
Cc1ccc2oc(=O)c3cc(C(=O)N4CCN(c5ccccn5)CC4)sc3c2c1	i	-1.1
O=C1COc2ccc(S(=O)(=O)N3CCN(C(=O)COc4ccc(Cl)cc4)CC3)cc2N1	i	0.67
CC(=O)N1N=C(c2ccc3c(c2)OCO3)OC1c1cc(-c2ccccc2)nc2ccccc12 (stereo unspecified)	i	-0.12
Cc1ccc(Cn2c3ccccc3c3cnn(CC(=O)Nc4cc(Cl)ccc4C)c(=O)c32)cc1	i	0.42
CCOC(=O)c1cnc(SCC(=O)Nc2c(C)cccc2C)nc1N	i	-1.3
CCOC(=O)c1c(C)[nH]c(C)c1S(=O)(=O)N1CCC(C(=O)N2CCN(c3ccccc3F)CC2)CC1	i	-0.46
O=C(CCc1nc(-c2ccc(N3CCCC3)cc2)no1)N1CCN(c2ccc(Cl)cc2)CC1	i	0.18
CCCCC/C=C\CC1OC1CCCCCCCC(=O)O (stereo unspecified)	+	-3.1*
Brc1ccc(OCc2nnc3sc(-c4cccnc4)nn23)cc1	i	-0.37
O=C(NCc1ccccc1Cl)c1csc(Nc2ccccc2)n1	i	2.3
Cc1cc(OCc2nc3c4ccccc4ncn3n2)ccc1Cl	i	0.1
CCc1ccccc1NC(=O)Cn1nnc(C(=O)O)c1C(=O)O	i	-0.08
COc1cccc(N2CCN(C(=O)c3cc(C)nc4c(-c5ccccc5)cccc34)CC2)c1	i	0.6
CC(=O)NCCc1csc(-c2ccc(Cl)cc2)n1	i	0.42
Cc1cccc(-c2nccc(N3CCC(C(=O)NC(C)CCc4ccccc4)CC3)n2)c1 (stereo unspecified)	i	1.3
CCc1ccc(-n2c(=O)c3cccnc3n2CC(=O)Nc2ccc3c(c2)OCO3)cc1	i	-1
CCOC(=O)c1c(C)c(S(=O)(=O)NC(C)(C)C)c(C)n1C	i	-1.3
CC1CCN(CCCNC(=O)c2nn(C)c3c2CCc2sccc2-3)CC1	i	-0.66
O=C(CCCc1nnc2c(=O)n(-c3ccc(F)c(F)c3)ccn12)N1CCN(c2ccccn2)CC1	i	-0.3
COc1ccc(-c2cc(C(F)(F)F)n3nc(C(=O)NCc4ccc5c(c4)OCO5)nc3n2)cc1	i	0.16
CNC(=O)C1CCN(Cc2cc3ccccc3n2Cc2ccc(F)cc2)CC1	i	-0.84
Cc1nn(S(=O)(=O)c2ccccc2)c(C)c1S(=O)(=O)N1CCC(C)CC1	i	0.72
CCc1ccc(C2C3=C(CC(c4ccc(O)c(OC)c4)CC3=O)Nc3onc(C)c32)cc1 (stereo unspecified)	i	-0.25
Cc1ccc(COc2cc(C)c3c(C)nn(C)c3n2)cc1	i	0.25
COc1ccc(CNc2c(C(=O)Nc3cccc(OC)c3)cnc3c2c(C)nn3-c2ccccc2)cc1	i	1.5
Cc1cc(NC(=O)CC(C)(C)C)n(-c2ncnc3c2cnn3-c2cccc(Cl)c2)n1	i	0.41
O=C(CCc1nc(-c2ccccc2)no1)NCc1noc(-c2ccccc2)n1	i	0.55
CC1(C(=O)NCc2cccc(F)c2)CCCN(C(=O)c2ccc(Br)cc2)C1 (stereo unspecified)	i	-0.37
Cc1cc(N2CCC(C(=O)NC3CC3)CC2)n2nc(-c3ccc(Cl)cc3)cc2n1	i	-1.3
O=C(NCCn1c(C(F)(F)F)nc2cccnc21)c1ccc(Br)cc1	i	-0.32
COc1ccc(-c2nn3c(N4CCCC4)cc(C)nc3c2C)cc1OC	i	0.2
CCc1noc(Cn2cnc3c([nH]c4ccc(C)cc43)c2=O)n1	i	-1.5
COCCNC(=O)NCC(c1ccccc1)c1c[nH]c2ccccc12 (stereo unspecified)	i	1.6
Cc1sc(NC(=O)C(C)(C)C)nc1-c1ccc2c(c1)NC(=O)CO2	i	0.33
CC(C)Cc1cc(-c2nn3c(-c4cccc(F)c4)nnc3s2)n[nH]1	i	0.31

Shown as labelled records: part of the list above.
CCc1noc(Cn2cnc3c([nH]c4ccc(C)cc43)c2=O)n1
  Choline anaer gr: i
  Choline anaer gr early: -1.5

COCCNC(=O)NCC(c1ccccc1)c1c[nH]c2ccccc12 (stereo unspecified)
  Choline anaer gr: i
  Choline anaer gr early: 1.6

Cc1sc(NC(=O)C(C)(C)C)nc1-c1ccc2c(c1)NC(=O)CO2
  Choline anaer gr: i
  Choline anaer gr early: 0.33

CC(C)Cc1cc(-c2nn3c(-c4cccc(F)c4)nnc3s2)n[nH]1
  Choline anaer gr: i
  Choline anaer gr early: 0.31

Full records as entered above. Order of values: Choline anaer gr	Choline anaer gr early
Entry for CC1(C(=O)NCc2cccc(F)c2)CCCN(C(=O)c2ccc(Br)cc2)C1 (stereo unspecified) : i	-0.37
Entry for CC(=O)N1N=C(c2ccc3c(c2)OCO3)OC1c1cc(-c2ccccc2)nc2ccccc12 (stereo unspecified) : i	-0.12
Entry for CCOC(=O)c1c(C)[nH]c(C)c1S(=O)(=O)N1CCC(C(=O)N2CCN(c3ccccc3F)CC2)CC1 : i	-0.46

Next part
structure	Choline anaer gr	Choline anaer gr early
Fc1ccc(-c2ccc(SCc3nc(-c4ccc(C(F)(F)F)cc4)no3)nn2)cc1	i	0.64
Cc1noc(C)c1C1CCCN1C(=O)c1cc(-c2ccccc2)on1 (stereo unspecified)	i	-0.24
CCn1c(=S)[nH]c2c(C)nn(CC)c2c1=O	i	0.65
COc1ccc(NC(=O)n2ncc3c(C)cccc32)cc1OC	i	0.54
O=C(O)CCNC(=O)c1ccccc1	i	0.72
Cc1c(-c2nc(-c3ccccc3)no2)nnn1-c1ccc(C(C)C)cc1	i	0.33
Cn1c(N2CCCC(C(=O)Nc3ccc4c(c3)OCCO4)C2)cc(=O)n(C)c1=O (stereo unspecified)	i	-1.3
COc1ccc(CNC(=O)c2cc(C)nc3c2c(C)nn3-c2ccc(C)c(C)c2)cc1	i	-0.59
Cc1cc2c(cc1S(=O)(=O)NC1CC1)N(C(=O)C1CC1)CC2	i	-0.3
CC(N)(C(=O)O)c1ccc(C(=O)O)cc1 (stereo unspecified)	i	0.01
COc1ccc(S(=O)(=O)N2CCC(n3cnc4cccnc43)CC2)cc1	i	-0.65
O=C(Nc1cccc(-c2noc(C3CC3)n2)c1)C1CC(=O)N(c2ccccc2)C1 (stereo unspecified)	i	1.2
O=C(CCc1nc(-c2ccc(S(=O)(=O)N3CCOCC3)cc2)no1)N1CCCC1	i	-1.7
NC(=O)c1cc(S(=O)(=O)N2CCc3ccccc32)cs1	i	-0.36
CCc1nc(-c2cc(S(=O)(=O)N3CCC(C(=O)NC(C)(C)C)CC3)c(C)s2)no1	i	0.35
Cc1ccc(-c2noc(-c3ccc(Nc4ccc5c(c4)OCO5)nn3)n2)cc1	i	0.6
Cc1c(C(=O)N(C)C2CCCCC2)sc2nc3ccc(N)cc3n12	i	0.07
Cc1c2c(=O)n(-c3ccccc3)n(Cc3ccccc3Cl)c2cc(=O)n1CCCN1CCCC1=O	i	-1.3
O=C(O)c1cc(=O)c2c(OCC(O)COc3cccc4oc(C(=O)O)cc(=O)c34)cccc2o1	i	0.09&0.32
CN1CCN(c2ccc(C(=O)O)cc2NS(=O)(=O)c2ccc(F)cc2)CC1	i	0.11
CCn1c(=O)c(C(=O)Nc2ccccc2F)c(O)c2ccccc21	i	-0.37
CC(C)(C)C(=O)NC1CCN(C(=O)C2CCC2)C1 (stereo unspecified)	i	-0.01
CCC(CC)C(=O)N1CCN(c2cc(=O)n(C(C)C)c(=O)n2C(C)C)CC1	i	0.25
O=S(=O)(Nc1ccc2c(c1)OCCO2)c1ccc2nncn2c1	i	-1.5
Cc1nc(-c2ccc(Cl)cc2)sc1CCNS(=O)(=O)c1ccccc1F	i	1.4
O=C(Nc1nc(-c2ccccc2)cc(-c2ccccc2)n1)c1ccc(F)cc1	i	-0.8
Cc1ccc(C)c(-c2nn(C(C)C(=O)Nc3ccccc3C)c(=O)c3c2CCCC3)c1 (stereo unspecified)	i	-1.8
O=S(=O)(NC1CCN(c2ncnc3c2CCC3)C1)c1ccccc1 (stereo unspecified)	i	-0.47
CCOC(=O)c1c(C)[nH]c(C)c1S(=O)(=O)N(Cc1ccccc1OC)C1CCN(C)CC1	i	0.5
COc1ccc(C2Nc3ccccc3S(=O)(=O)N2)cc1OC (stereo unspecified)	i	-0.84
COC(=O)c1sccc1NC(=O)N1CCc2c([nH]c3ccccc23)C1c1ccc(F)cc1 (stereo unspecified)	i	-0.17
COc1cc2c(=O)n(Cc3ccc(C(=O)NC4CC4)cc3)c(=O)n(Cc3cc(C)ccc3C)c2cc1OC	i	-0.22
CN1C(CCl)Nc2cc(Cl)c(S(N)(=O)=O)cc2S1(=O)=O (stereo unspecified)	i	0.12&0.26
CN1CCN(S(=O)(=O)c2ccc3c(c2)n(C)c(=O)c(=O)n3C)c2ccccc21	i	-1.5
O=C(NCC1CCCO1)c1ccccc1OCc1nc(-c2ccccc2)no1 (stereo unspecified)	i	-0.45
O=c1c2cc3c(cc2nc(SCc2nc(-c4ccc(F)cc4)no2)n1C1CC1)OCO3	i	-2
COC(=O)c1ccc(C(=O)N(CCN(C)C)c2nc3ccc(Cl)cc3s2)cc1	i	-0.56
CC(C)CCN1C(=O)c2nc3ccccc3n2CC1(C)C(=O)NC1CCCC1 (stereo unspecified)	i	-0.13
Cc1ccc(C)c(CNS(=O)(=O)c2cc(-c3nc(C(C)(C)C)cs3)cs2)c1	i	1.2
O=c1c(-c2ccc(O)cc2)coc2cc(O)ccc12	i	-1.1&0.44&-0.38
O=C(c1noc2ccc(S(=O)(=O)N3CCOCC3)cc12)N1CCCC1	i	-0.47
O=C(Nc1cccc(Br)c1)C1CC2CSCN2C12C(=O)Nc1ccccc12 (stereo unspecified)	i	1.3
COc1ccccc1CN1CCCC1c1c(C)noc1C (stereo unspecified)	i	-3
Cc1cc(C)n2nc(CN(C(=O)C3CCCCC3)c3ccc(Cl)cc3)nc2n1	i	-0.72
CCOC(=O)C1CCN(c2ncnc3c2c(C)c(C)n3-c2cc(Cl)ccc2C)CC1	i	-1.2
Cc1cc(C)nc(SCCn2c(N3CCC(C)CC3)nc3c2c(=O)n(C)c(=O)n3C)n1	i	0.51
CC1=NS(=O)(=O)c2cccnc2N1c1ccc(F)cc1	i	-1.3
FC(F)(F)c1nnc2sc(-c3c[nH]c4ccccc34)nn12	i	1.7
Cc1nc(CCNC(=O)[C@H]2CSCN2S(=O)(=O)c2ccc3c(c2)oc(=O)n3C)cs1	i	1.1
CC(C)C(=O)N1CCN(c2nc3ccccc3n2C)CC1	i	-1
Cc1sc2ncc(C(=O)N3CCN(c4ccc(F)cc4)CC3)c(=O)n2c1C	i	-0.08
